CSC inhib = cancer stem cell inhibition; cancer stem cell-like cells viability, luminescence; inhibition, % at 7.5 µM; actives 1.1% (n = 300,000); AID 2717;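 active = mean at 75% or more and at least half the replicates too; tested in HMLE shEcad cells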;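 note: 0% = median of negative and 100% = median of positive control wells; the first replicate is given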
MT1-MMP act inh = MT1-MMP (human) activation inhibition; P50281; AID 651647; HT1080 RFP-PRO-GFP cells, GFP/RFP ratio fluorescence, overnight; percent of plate control window, DMSO zero; actives 0.061% (n = 360,000); GFP/RFP ratio change, % at 20 µM;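 active = GFP/RFP ratio change of at least 30% with cell ATP level not reduced by more than half and red fluorescence within 50% of control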; note: strong numbers were not always called active
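Test system: HT1080 RFP-PRO-GFP cells; Benchmarks: DMSO and RFP-L50D-GFP cell wells; Timing: cells overnight before dosing, compound overnight, 37 °C, 5% CO2; Compound: one 20 µM compound dose with 1% DMSO; Read-out: GFP/RFP fluorescence ratio.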
Rce1 inh = inhibitors of yeast Ras-converting enzyme; yeast membranes, quenched prenylated peptide cleavage fluorescence; calls only; actives 0.27% (n = 290,000);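 active = fall in fluorescence gain of 50% or more versus controls, with final raw signal at or below 3038400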;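 note: plate controls were neutral control wells for no effect and wells lacking membranes for full effect; tested at 10 µM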
eIF4H inh = inhibitors of RNA binding by human eIF4H | eIF4H fluorescence polarization binding assay | inhibition, % at 35 µM | actives 0.94% (n = 290,000) | AID 2012;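 active = 50% or more with normal probe brightness, or confirmed in later tests; about a fifth of its hits are not listed in these tables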;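 note: calls also rest on retests at 20 µM and on dose response follow-up; 0% = protein and probe with vehicle and 100% = probe without protein; strong numbers were not always called active; many hits fall short of the cut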
HIV Env fusion = blocks HIV Env-driven cell-cell fusion; HeLa-JRFL Env/CEM21 cell fusion, luciferase; inhibition, % at 12.3 µM; actives 1.1% (n = 360,000); AID 651610;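 active = mean replicate inhibition score of at least 50 and every replicate individually at or above 50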;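 note: 0% = plate neutral controls and 100% = maraviroc near 300 nM; one replicate is shown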
UUG fidelity = yeast start codon fidelity modulation; S. cerevisiae UUG-firefly luciferase reporter, luminescence/redox ratio; activity score, % at 18.7 µM; actives 0.13% (n = 350,000);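 active = replicate mean at a twofold rise or more, about +100% in these data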;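 note: firefly luciferase made from a UUG start codon reports start codon fidelity; reporter light over untreated wells divided by growth signal over untreated wells; some hits fall short of that in this replicate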
PABP polyA inh = PABP-poly(A) binding inhibition | P11940 | PABP-poly(A) RNA binding, fluorescence polarization | inhibition, % at 35 µM | actives 1% (n = 290,000) | AID 2014;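 active = 50% or more with normal probe brightness, or confirmed in later tests; about a fifth of its hits are not listed in these tables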;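 note: calls also rest on retests at 20 µM and on dose response follow-up; controls were probe without protein and protein plus probe with vehicle; some compounds called inactive have numbers as strong as hits; many hits fall short of the cut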
Target sequence (P11940 whole entry, looked up): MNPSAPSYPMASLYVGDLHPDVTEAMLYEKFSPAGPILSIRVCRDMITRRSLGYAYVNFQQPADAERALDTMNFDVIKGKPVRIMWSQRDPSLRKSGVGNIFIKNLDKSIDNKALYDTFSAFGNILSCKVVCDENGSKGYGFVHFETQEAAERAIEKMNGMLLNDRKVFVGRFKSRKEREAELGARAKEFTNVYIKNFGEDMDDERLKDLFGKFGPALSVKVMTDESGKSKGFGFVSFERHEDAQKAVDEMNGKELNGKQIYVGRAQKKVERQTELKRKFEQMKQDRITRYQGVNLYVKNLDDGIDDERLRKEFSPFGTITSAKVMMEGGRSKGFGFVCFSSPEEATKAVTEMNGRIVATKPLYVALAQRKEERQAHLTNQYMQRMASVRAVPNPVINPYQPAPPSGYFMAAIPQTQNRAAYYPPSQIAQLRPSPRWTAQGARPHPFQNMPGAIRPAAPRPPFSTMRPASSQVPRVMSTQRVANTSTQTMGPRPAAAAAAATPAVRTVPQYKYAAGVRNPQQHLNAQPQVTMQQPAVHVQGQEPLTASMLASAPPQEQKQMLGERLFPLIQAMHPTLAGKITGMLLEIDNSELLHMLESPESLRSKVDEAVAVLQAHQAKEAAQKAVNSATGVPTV
eIF4H inh retest = second read-out of eIF4H inh, no call of its own (marks repeat the call); inhibition, %; compound at 20 µM; confirmation average;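 mean of two retest wells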
PABP polyA inh retest = also measured in PABP polyA inh; calls as there; inhibition, %; compound at 20 µM; confirmation repeats;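 mean of two retest wells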
MT1-MMP act inh RFP = further read-out of MT1-MMP act inh, marked with its call; RFP signal change, %; measured here: RFP expression control read;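 0 = vehicle wells; hits needed this value within 50% of zero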
* hit, by the source's call; i = inactive; . = not tested or not shown; & = joins results of further samples; [ ] = remark or other dose. A portion of the library; the hit share may differ from the screen's.

SMILES	CSC inhib	MT1-MMP act inh	MT1-MMP act inh RFP	Rce1 inh	eIF4H inh	HIV Env fusion	UUG fidelity	PABP polyA inh	others
Cc1ccc(NC(=O)CCC(=O)NNC(=O)Nc2cccc(Cl)c2)c(C)c1	-19	3	0	i	12	6	-15	1
CS(=O)(=O)c1cccc(-c2nnc(NC(=O)c3ccc(S(=O)(=O)N4CCCC4)cc3)o2)c1	-7	0	7	i	.	-33	-16	.
O=C1c2ccccc2C(O)(c2ccccc2)N1c1ccc([N+](=O)[O-])cc1Cl (stereo not drawn)	.	-3	2	.	.	0	-10	.
O=S(=O)(c1cc(Cl)cc(Cl)c1)N1CCCC1c1nc2ccccc2s1 (stereo not drawn)	-4	-1	-8	i	4	43	6	11
COc1cc(C(=O)OCC(=O)N2CCC(Cc3ccccc3)CC2)cc(OC)c1OC	-1	-2	1	i	.	1	9	.
O=C(/C=C/c1cccc([N+](=O)[O-])c1)Nc1cc(C(=O)O)cc(C(=O)O)c1	5	1	3	i	-4	-15	-5	32
CCCCCCN1C[C@@H](O)[C@H](n2cc(-c3ccc(F)cc3)nn2)C[C@@H]1c1ccc(C)cc1	.	-7	-9	.	.	0	-11	.
COc1ccc(CCn2nnnc2C(CC(C)C)N2CCN(c3ncccn3)CC2)cc1OC (stereo not drawn)	-4	0	1	i	-4	-55	9	-2
O=C(Oc1ccccc1)N1CCN(C(=O)c2ccco2)CC1	-3	-2	3	i	4	-11	-4	10
Cc1cccc(NC(=O)CSCC(=O)Nc2ccc(S(=O)(=O)N3CCCCC3)cc2)c1	.	9	-1	.	.	7	7	.
O=c1[nH]c2ccc(S(=O)(=O)N3CCCCC3)cc2[nH]c1=O	.	1	6	i	-2	.	-19	2
O=C(O)COc1ccc(S(=O)(=O)NCCc2ccccc2)cc1	-2	-3	6	i	-19	-13	-17	-6
CO/N=C/CC(=O)c1cnc(-c2ccc(Cl)cc2)s1	0	-8	-2	i	-12	-7	-6	0
CCN(CC)C(=O)C1=C(C)N(CCCN2CCCC2=O)C(=O)C(CC(=O)NCc2ccco2)C1 (stereo not drawn)	.	-1	2	.	.	6	-22	.
CN(c1ccccc1)S(=O)(=O)c1ccc(Cl)c(C(=O)OCC(=O)N2CCOCC2)c1	-14	-1	5	i	2	20	0	14
Cc1cc(-c2ccc(S(=O)(=O)N3CCN(c4ccccc4F)CC3)s2)on1	-1	0	-16	i	-16	10	-8	10
COc1ccc(OC)c2c1sc(=NC(=O)C(C)C)n2C	-11	3	-1	i	1	-11	-6	-14
CCN(CC)CCC(O)(c1ccc2c(c1)OCO2)c1cc(OC)c(OC)c(OC)c1 (stereo not drawn)	.	5	10	.	.	15	-23	.
O=C(O)c1ccccc1Nc1cc(Cl)c2nonc2c1[N+](=O)[O-]	-10	5	3	i	11	11	1	10
CC1(C)CC(=O)C(C(c2ccncc2)C2C(=O)CC(C)(C)CC2=O)C(=O)C1	3	5	7	i	-2	.	16	8
CCCC(C)NC(=O)c1c2c(nc3ccccc13)CCC2 (stereo not drawn)	3	5	4	i	25	2	.	-4
COC(=O)C1CC(O)CN1C(=O)c1ccco1 (stereo not drawn)	-6	-1	0	i	-2	-51	-10	8
COc1ccccc1CNc1nc(NCc2ccccc2OC)c2sccc2n1	.	5	-27	.	.	6	1	.
O=C(CN1CCN(c2ccccc2)CC1)Nc1ccc2c(c1)OCCO2	6	0	-1	i	2	11	.	5
CC(NC(=O)CCNS(=O)(=O)c1cccc2nsnc12)c1ccccc1 (stereo not drawn)	-9	4	7	i	-1	2	-7	-1
CN(Cc1ccccc1)C(=O)CSc1nc2cc(C(=O)N3CCC(C(N)=O)CC3)ccc2c(=O)n1-c1ccccc1	-4	.	.	i	8	.	.	4
Cc1noc(C)c1Cc1ccc(O)cc1	.	8	2	i	-10	-42	4	-2
Cc1ccccc1-c1noc(C23CC4CC(CC(C4)C2)C3)n1	33	0	1	i	-2	-22	0	3
Cc1cc(C(=O)Nc2sccc2C#N)c2ccccc2n1	20	1	10	i	61	-2	-6	22*	eIF4H inh retest=28;PABP polyA inh retest=59*
O=C(c1cccc([N+](=O)[O-])c1)N1CCN(c2ccc(N3CCOCC3)nn2)CC1	-6	6	2	i	.	-1	1	.
N#Cc1ccccc1S(=O)(=O)N1CCN(C(=O)CN2C(=O)NC3(CCCC3)C2=O)CC1	8	-3	1	i	.	1	-10	.
CC(=O)NC12CC3CC(C1)CC(C(=O)N(C)Cc1cccc(Cl)c1Cl)(C3)C2	2	0	-5	i	-3	9	10	12
O=C(CCSCc1ccccc1Cl)N1CCN(c2ccccn2)CC1	1	0	2	i	2	-21	-14	0
N#C/C(=C\c1ccc(O)c([N+](=O)[O-])c1)C(=O)NCc1ccccc1	13	2	-4	i	-2	-11	-15	2
CCOc1ncccc1C(=O)Nc1cc2c(cc1Br)OCCO2	36	1	-5	.	.	.	-17	.
CC(Nc1cc(=O)n(C)c(=O)n1C)c1ccccc1 (stereo not drawn)	-11	5	3	i	11	.	-13	2
CSc1ccc(CSCC(=O)N2CCN(S(=O)(=O)c3ccc(C)cc3C)CC2)cc1	3	-7	-18	.	.	21	13	.
CC(=O)Nc1ccccc1OCC(=O)NC1CCCCC1C (stereo not drawn)	-5	-1	-3	.	.	.	-13	.
S=c1[nH]nc(Nc2ccccc2Cl)s1	2	3	1	i	1	-3	.	3
CCOC(=O)C1=NN(C(=O)c2cccc(Br)c2)C(O)(C(C)(C)C)C1 (stereo not drawn)	2	.	.	i	9	.	.	-2

Arranged by length of the SMILES (lowest first): 14 of the compounds above
SMILES	CSC inhib	MT1-MMP act inh	MT1-MMP act inh RFP	Rce1 inh	eIF4H inh	HIV Env fusion	UUG fidelity	PABP polyA inh	others
CC(=O)Nc1ccccc1OCC(=O)NC1CCCCC1C (stereo not drawn)	-5	-1	-3	.	.	.	-13	.
Cc1cc(C(=O)Nc2sccc2C#N)c2ccccc2n1	20	1	10	i	61	-2	-6	22*	eIF4H inh retest=28;PABP polyA inh retest=59*
CCCC(C)NC(=O)c1c2c(nc3ccccc13)CCC2 (stereo not drawn)	3	5	4	i	25	2	.	-4
CCOc1ncccc1C(=O)Nc1cc2c(cc1Br)OCCO2	36	1	-5	.	.	.	-17	.
O=C(CCSCc1ccccc1Cl)N1CCN(c2ccccn2)CC1	1	0	2	i	2	-21	-14	0
COc1ccccc1CNc1nc(NCc2ccccc2OC)c2sccc2n1	.	5	-27	.	.	6	1	.
O=C(CN1CCN(c2ccccc2)CC1)Nc1ccc2c(c1)OCCO2	6	0	-1	i	2	11	.	5
CC(NC(=O)CCNS(=O)(=O)c1cccc2nsnc12)c1ccccc1 (stereo not drawn)	-9	4	7	i	-1	2	-7	-1
CCOC(=O)C1=NN(C(=O)c2cccc(Br)c2)C(O)(C(C)(C)C)C1 (stereo not drawn)	2	.	.	i	9	.	.	-2
N#C/C(=C\c1ccc(O)c([N+](=O)[O-])c1)C(=O)NCc1ccccc1	13	2	-4	i	-2	-11	-15	2
CSc1ccc(CSCC(=O)N2CCN(S(=O)(=O)c3ccc(C)cc3C)CC2)cc1	3	-7	-18	.	.	21	13	.
CC(=O)NC12CC3CC(C1)CC(C(=O)N(C)Cc1cccc(Cl)c1Cl)(C3)C2	2	0	-5	i	-3	9	10	12
N#Cc1ccccc1S(=O)(=O)N1CCN(C(=O)CN2C(=O)NC3(CCCC3)C2=O)CC1	8	-3	1	i	.	1	-10	.
CN(Cc1ccccc1)C(=O)CSc1nc2cc(C(=O)N3CCC(C(N)=O)CC3)ccc2c(=O)n1-c1ccccc1	-4	.	.	i	8	.	.	4

New compounds follow.
SMILES	CSC inhib	MT1-MMP act inh	MT1-MMP act inh RFP	Rce1 inh	eIF4H inh	HIV Env fusion	UUG fidelity	PABP polyA inh	others
Cc1cccc(-c2nc(CS(=O)CC(=O)NC(C)CCc3ccccc3)c(C)o2)c1 (stereo not drawn)	-6	-6	-3	i	-4	5	20	11
Cc1ccc(C2=NNC(c3cccc(F)c3)S2)cc1 (stereo not drawn)	-18	-2	1	i	1	-91	.	3
CCC(=O)N1CCN(c2ccccc2NC(=O)Cc2ccccc2)CC1	-15	2	17	i	-7	.	-12	-8
O=C(O)C1=C[C@H](c2ccc3c(c2)OCO3)C[C@H](OCc2ccc(CO)cc2)O1	10	1	2	i	.	-23[16.7 µM]	-8&-11&-10	.
COc1ccc(N2CC(NS(=O)(=O)c3ccc4ccccc4c3)CC2=O)cc1OC (stereo not drawn)	14	1	-2	i	.	10	.	.
C/C(=N/NC(=O)Nc1ccccc1)c1ccc(C)cc1	-10	.	.	i	-9	-20	-8	-4
Cc1ccc(OCC(=O)NNC(=O)c2ccoc2C)c(Br)c1	-14	2	3	i	-1	-23	-10	-10
CN(Cc1ccccc1)S(=O)(=O)c1ccc(NC(=S)NC(=O)C2CCCCC2)cc1	14	-1	-12	i	-18	.	-5	-3
Cc1ccc(NC(=S)NC(=O)c2sc3ccccc3c2Cl)c(C(=O)O)c1	.	.	.	i	-8	.	.	12
Cc1c(NC(=O)c2cc(-c3ccc(Br)cc3)on2)c(=O)n(-c2ccccc2)n1C	-27	-2	-4	i	0	11	-2	17
CC(=O)Nc1ccc(NC(=O)C(C)N2CCN(S(=O)(=O)c3ccc(C)cc3)CC2)cc1 (stereo not drawn)	-2	-4	-1	i	-9	1	9	-3
CCN(CC(=O)Nc1ccc(NC(C)=O)cc1)C(=O)c1n[nH]c(=O)c2ccccc12	1	-2	5	i	12	17	.	9
CC(=O)N1CCc2c(sc3c2c(=O)n(-c2ccccc2)c(=O)n3Cc2ccccc2Cl)C1	4	3	2	i	-8	16	.	4
O=C1C=C(OCc2ccccc2)CN1	-8	3	1	.	-3	-5	3	-7
O=C(CCC(=O)N1CCOc2ccc(Cl)cc21)NCc1ccccc1	.	-3	0	i	-3	5	12	2
CC(=O)c1c(C)[nH]c(C2=NNC(=NCc3ccccc3)SC2)c1C	4	4	1	i	-6	0	.	12
O=C(Nc1ccccc1)c1cnc[nH]1	-14	0	0	i	12	.	.	-9
COc1ccc(NC(C)=O)cc1NS(=O)(=O)c1ccc2c(c1)OCCO2	-9	7	5	.	.	3	16	.
Cn1c2ccccc2c2cnn(CC(=O)O)c(=O)c21	6	0	5	i	-3	.	.	8
CCc1ccc(OCc2n[nH]c(=S)n2C(C)CCCC(C)C)cc1 (stereo not drawn)	118*	-1	-4	i	7	10	.	-1
CSc1cccc(NC(=S)N2CCC(N(C)C3CCCCC3C)CC2)c1 (stereo not drawn)	50	2	3	i	-8	-13	-14	-13
CCN(C(=O)C(C)Sc1ccc(S(=O)(=O)N2CCOCC2)cn1)c1ccccc1 (stereo not drawn)	-8	-5	0	.	.	.	-21	.
NNc1nnc(-c2ccccc2)c(-c2ccccc2)n1	4	-3	-1	i	1	.	27	-3
COc1ccc(CC(=O)N(Cc2cc3cc(OC)ccc3[nH]c2=O)C(C)C)cc1	8	-27	-20	i	-9	.	-4	-10
COc1ccc(CCNC(=O)Cc2cccs2)cc1	0	-2	-8	i	-4	16	4	4
Brc1cc(Br)c2nc3c(cc2c1)CCC3	-1	-1	4	i	3	-12	4	-3
CN(Cc1ccc(F)cc1)C(=O)c1ccc(NS(=O)(=O)c2ccccc2)cc1	0	-2	-7	i	.	-80	.	.
CC(=O)c1cccc(NC(=O)N2CCC(NC(=O)c3ccco3)CC2)c1	5	0	-2	i	-8	-15	-11	-1
CC(NC(=O)CSc1nc2ccccc2c(=O)n1CCCO)c1ccccc1 (stereo not drawn)	-13	-2	6	i	-9	.	-3	-16

From PubChem
